Bioassay records from PubChem BioAssay.
PINK1 expr mod = A Quantitative High throughput Screen to Identify Chemical Modulators of PINK1 Expression; PINK1 immunofluorescence, high-content cytometry, 24 h; Potency, µM (highest dose often 76.6 µM), without a hit: at the top dose activation (PINK1 increase), most hits filed as activators; hit rate 0.2% among 410,000; active = well fitted activation curve with a large enough effect; inconclusive = small, poorly fitted or top-dose-only effect; inactive = flat fitted curve, though single readings scatter; cell line not stated here;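 note: potency is the fitted concentration of half-maximal effect; % of control where 0% means no effect; nearly all actives have a fitted effect of over 65% in size; a mitochondrial uncoupler was the plate control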
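Fluorescence from anti-PINK1 antibody, together with nuclear and cell stains, was scanned on a laser-scanning cytometer. Before staining, stable-line cells were incubated 24 hours with compounds at 5 concentrations; primary antibody 12 h at 10 degrees C.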
Sfp PPTase inh = qHTS Assay for Inhibitors of Bacillus subtilis Sfp phosphopantetheinyl transferase (PPTase) | 4'-phosphopantetheinyl transferase ffp (Bacillus subtilis), Q9F4F7 | Biochemical Sfp PPTase activity, qHTS | Potency, µM, inactives show max response, negative = inhibition, most hits filed as inhibitors | hit rate 3.5% among 310,000; active = well fitted inhibition curve with a large enough effect; inconclusive = small, poorly fitted or top-dose-only effect, or another doubt; inactive = no such curve, though single readings can be large or run the other way;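 note: the enzyme is Sfp with the accession as filed and its product quenches rhodamine fluorescence; potency is the fitted concentration of half-maximal effect; 0% = enzyme reaction without inhibitor and -100% = no enzyme wells; top concentration of the series not given in the record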
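After 15 min at room temperature with compound, 15 nM Sfp received 5 uM rhodamine-CoA plus 12.5 uM BHQ-2-ybbR (50 mM Hepes pH 7.6, 10 mM MgCl2). Rate came from the fluorescence difference over 30 min, ex 525/em 598 nm.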
TRPV1 potentiator = HTS Assay for Compounds that Act as Potentiators of the Vanilloid Receptor 1; TRPV1-expressing cells, Fluo-8 calcium influx, capsaicin EC20 potentiation; host cell line not named in the record; control for the full effect not named in the record; Transient receptor potential cation channel subfamily V member 1 (Homo sapiens), Q8NER1; hit rate 0.02% among 320,000; potentiation, % at 8.33 µM; active means potentiation above 80%; inconclusive means 30% to 80%; inactive means below 30%; note: 0% is about no effect
Target sequence (Q8NER1 whole entry, looked up): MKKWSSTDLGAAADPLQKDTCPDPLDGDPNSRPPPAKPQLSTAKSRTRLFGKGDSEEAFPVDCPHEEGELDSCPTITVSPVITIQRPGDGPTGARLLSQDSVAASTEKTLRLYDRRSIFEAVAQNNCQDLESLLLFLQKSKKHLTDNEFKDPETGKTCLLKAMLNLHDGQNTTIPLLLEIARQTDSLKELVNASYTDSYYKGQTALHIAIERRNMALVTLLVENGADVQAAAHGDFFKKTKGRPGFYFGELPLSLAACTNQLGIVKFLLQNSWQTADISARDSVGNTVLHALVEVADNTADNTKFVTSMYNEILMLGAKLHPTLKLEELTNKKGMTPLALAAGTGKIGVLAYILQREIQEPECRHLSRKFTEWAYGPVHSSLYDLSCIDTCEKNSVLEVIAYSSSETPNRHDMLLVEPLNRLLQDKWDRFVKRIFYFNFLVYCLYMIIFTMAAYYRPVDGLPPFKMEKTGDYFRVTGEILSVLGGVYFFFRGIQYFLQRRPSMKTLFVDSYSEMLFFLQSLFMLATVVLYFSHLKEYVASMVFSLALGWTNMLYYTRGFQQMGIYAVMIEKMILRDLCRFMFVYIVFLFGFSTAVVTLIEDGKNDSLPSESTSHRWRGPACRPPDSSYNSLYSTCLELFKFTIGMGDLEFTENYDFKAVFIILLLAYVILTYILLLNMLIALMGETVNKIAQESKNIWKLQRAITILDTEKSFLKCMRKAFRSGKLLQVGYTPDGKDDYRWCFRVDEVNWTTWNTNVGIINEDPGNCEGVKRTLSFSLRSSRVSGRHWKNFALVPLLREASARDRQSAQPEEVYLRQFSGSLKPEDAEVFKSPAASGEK
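Cells expressing TRPV1 were dye-loaded with Fluo-8 and read kinetically: 10 s baseline, 3 min after compound (agonist portion), then 2 min after EC20 capsaicin (allosteric enhancer portion). Calcium-bound dye fluorescence at 480/520 nm.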
Menin MLL FP FL = qHTS Assay for Inhibitors Targeting the Menin-MLL Interaction in MLL Related Leukemias: Competition With Fluorescein Labeled MLL-derived Peptide | FP activity change, % at 61.4 µM | Fluorescence polarization, fluorescein-MLL peptide displacement from menin | 290,000 tested, under 10 active; inconclusive = falling polarisation curve, or a change in total fluorescence; inactive = total fluorescence flat and polarisation flat or rising; no compound was filed as active; the % refers to the polarisation; negative = inhibition;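 note: % of control where 0% means no effect; inhibitors lower the polarisation; unlabelled MLL peptide was the positive control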
TRPML1 inh = qHTS for Inhibitors of the Human Mucolipin Transient Receptor Potential 1 (TRPML1). Mucolipin-1 (Homo sapiens), Q9GZU1. TRPML1-inducible cells, Ca2+ dye fluorescence, FDSS; hits give low values; inhibition of EC80 agonist-evoked calcium signal. activity change, negative = inhibition, % (concentration not given with the values). hit rate 0.02% among 390,000. AID 624415, 2012; in the data active means activity change below about -50%; inconclusive means about -30% to -50%; inactive means above about -30%;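 note: stimulus is agonist 54-4 at its EC80 concentration; % is set by controls: 0 for no effect and ±100 for the full control effect; compound concentration not given in the record; the text of the record puts the active cut at -80%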
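Tet-induced TRPML1-DL cells loaded with Ca8 no-wash calcium dye were read kinetically on FDSS. Compound addition was followed by EC80 agonist 54-4 (4 uM final); inhibition was read over 110 s.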
ClpP mod = qHTS Assay for Activators of ClpP; ATP-dependent Clp protease proteolytic subunit (Bacillus subtilis (strain 168)), P80244; purified B. subtilis ClpP, FRET peptide cleavage, 20 min; Potency, µM (series often up to 57.5 µM), without a hit: at the highest dose activity change, negative = active; hit rate 1.9% among 340,000; active = well fitted falling curve with a large enough effect; inconclusive = small, poorly fitted or top-dose-only effect; inactive = no such curve, though single readings can be large or run the other way; note: potency is the fitted concentration of half-maximal effect; the source files actives as falling curves though it sought activators and does not explain the sign; nearly all actives have a fitted effect of over 65% in size; many hits overshoot -100%
Target sequence (P80244 whole entry, looked up): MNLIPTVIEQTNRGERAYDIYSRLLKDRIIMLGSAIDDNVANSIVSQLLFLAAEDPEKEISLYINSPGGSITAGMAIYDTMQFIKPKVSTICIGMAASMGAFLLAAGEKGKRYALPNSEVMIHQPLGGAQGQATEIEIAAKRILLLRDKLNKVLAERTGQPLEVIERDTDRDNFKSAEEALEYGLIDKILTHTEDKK
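Buffer: 100 mM Tris/HCl pH8, 100 mM KCl, 0.05% low protease BSA, 2.5% glycerol, 0.01% Tween-20. ClpP 10 microg/mL final; 20 min RT; delta FRET normalized to ADEP and DMSO controls.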
TRPML1 ag = qHTS for Agonists of the Human Mucolipin Transient Receptor Potential 1 (TRPML1); TRPML1-expressing cells, Ca2+ dye fluorescence, FDSS; host cell line not named in the record; reference of the full effect not given here; activation, % (no concentration beside the values); hit rate 0.12% among 410,000; in the data active = activation above about 50%; inconclusive = about 30% to 50%; inactive = below about 30%; note: 0% is about no effect; the text of the record puts the active cut at 80%
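Kinetic FDSS Ca2+ read in Tet-induced TRPML1-DL cells (ABD Ca8 dye plus quencher, 45-90 min RT loading): baseline, then compound, then 110 s agonist window; EC80 agonist 54-4 at 4uM final added afterwards for a 110 s antagonist window.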
Numbers without * were called inactive; ? = inconclusive; / = no result given; & = joins results of further samples; [ ] = remark or other dose.

SMILES	PINK1 expr mod	Sfp PPTase inh	TRPV1 potentiator	Menin MLL FP FL	TRPML1 inh	ClpP mod	TRPML1 ag
Cc1ccc(S(=O)(=O)N2CCCCC2)cc1NC(=O)CSc1nc(N)cc(=O)[nH]1	3.5%	/	/	/	0	0.6%	-0.6
O=C1CCCC2=C1Sc1ccc(Cl)cc1N2	-0.4%	-10%	17	?	-6	1.1%	0.7
CCOC(=O)N1CCN(Cc2c(NC(=O)c3ccco3)sc(C)c2C)CC1	1.6%	-23%	-13	-2.6	7	/	0.3
Cc1ccccc1NS(=O)(=O)c1ccc2[nH]cc(C(=O)NCCCN3CCOCC3)c(=O)c2c1	-0.5%	13%	-1	-0.5	15	?	1.7
Cc1ccc(OCC(=O)Nc2cc(-c3nc4cc(Cl)ccc4o3)ccc2C)c(C)c1	0.0%	/	/	/	/	-5.7%	-0.2
COc1ccc(/C=N/NC(=O)CNc2c(Br)cc(C)cc2Br)c(C(=O)O)c1OC	1.5%	16%	12	-1.7	-9	/	1.7
COc1ccc(NC2=C(C(C)=O)C(c3ccc(N(C)C)cc3)C(C(C)=O)C(C)(O)C2)cc1 (configuration not stated)	4.0%	-2%	-39	1.7	-3	1.6%	4.5
O=C(Nc1c(Cl)ccc2nsnc12)c1ccco1	-2.1%	12%	8	-4.2	-12	/	-0.4
Cc1c(C)c2ccc(O[C@@H]3O[C@H](CO)[C@H](O)[C@H](O)[C@H]3O)cc2oc1=O	0.5%	12%	12	-1.8	/	4.2%	/
Cc1cc(C)n2[nH]c(=O)c(N=Nc3cccc(Cl)c3)c2n1	1.3%	-22%	5	7.4	-8	-1.3%	-0.7
CNc1ncncc1-c1ccccc1CN(C)C	-0.4%	7%	/	-0.9	/	/	/
CC1(C)Cc2cccc(Oc3ccc(S(=O)(=O)N4CCCC4)cn3)c2O1	4.5%	16%	-4	0.7	-2	-3.3%	0.9
CCOc1cc(/C=N/NC(=O)CN2CCCCC2)ccc1OCc1ccccc1	1.3%	-6%	27	1.9	-7	-5.5%	-0.8
Cc1ccc(S(=O)(=O)N2CCOCC2)cc1C(=O)NCc1ccccn1	0.3%	/	8	/	-27	-1.5%	-0.2
N#C/C(=C\c1ccc(F)c(Br)c1)C(=O)NC1CC1	0.7%	4%	-14	/	13	1.8%	-0.3
COC(=O)c1c(C(=O)OC)c(-c2cccc(Cl)c2)n2c1CS(=O)(=O)C2	1.0%	8%	-7	-4.3	60	1.7%	-0.8
COc1ccc(N(C(=O)c2ccco2)C(C(=O)NC2CCCC2)c2ccncc2)cc1 (configuration not stated)	4.0%	22%	4	/	3	/	0.1
O=C(OCc1nnc(-c2ccccc2)o1)c1ccc2c(c1)OCO2	-1.1%	?	8	16	-2	-7.2%	1.3
CCCCSc1nnc(-c2cc(Br)ccc2N)c(=O)[nH]1	-1.7%[38.3 µM]	8%	6	1.1	-6	-0.9%	0.4
OCC1OC(n2ccc3c(SCc4ccccc4)ncnc32)C(O)C1O (configuration not stated)	0.9%	/	/	/	-6	35µM*	-0.6
Nn1c(SCC(=O)NCC2CCCO2)nnc1-c1cc(Cl)ccc1Cl (configuration not stated)	2.5%	/	-2	/	9	/	-0.9
COc1cc(CNC(=O)c2cc(-c3ccc(F)cc3OC)n[nH]2)cc(OC)c1	2.4%	/	/	/	/	-0.5%	-0.7
COc1ccc(/C=N/n2cnnc2)cc1COc1ccccn1	-4.1%[38.3 µM]	0%	3	1.6	8	-1.0%	-0.6
C[C@H](CO)N1C[C@H](C)[C@@H](CN(C)Cc2ccc(-c3ccccc3)cc2)Oc2c(NC(=O)Nc3ccc(C(F)(F)F)cc3)cccc2C1=O	-0.4%	/	/	/	-3	-2.5%	-0.8
O=C(NC(=S)N1CCc2ccccc21)c1ccccc1	20%	6%	8	0.3	-3	0.8%	0.6
(more compounds)
SMILES	PINK1 expr mod	Sfp PPTase inh	TRPV1 potentiator	Menin MLL FP FL	TRPML1 inh	ClpP mod	TRPML1 ag
COc1ccc(-c2cc(C(=O)N/N=C/c3sccc3C)c3ccccc3n2)c(OC)c1	1.2%	3%	11	-0.4	7	-11%	-0.1
Cc1ccccc1NC(=S)N(Cc1cccnc1)Cc1ccco1	1.7%	11%	-6	4.4	-7	-0.7%	-0.5
Cc1ccc(S(=O)(=O)N2C[C@H]3n4c(=O)ccc(=O)n4C[C@H](OC(=O)Nc4cccs4)[C@@]3(O)C2)cc1	3.1%	/	/	/	0	2.6%	0.9
O=C(NCC(c1ccco1)N1CCCC1)c1ccccc1F (configuration not stated)	1.0%	3%	-18	1.3	3	-1.1%	-0.9
CCNc1nc(NC(C)(C)C)nc(N(C#N)CC)n1	0.4%[38.3 µM]	-3%	-9	-0.2	2	-1.8%	2.6
CCn1cc(C(=O)O)c(=O)c2cc(F)c(N3CCN(C(=S)NC(=O)c4ccccc4Br)CC3)cc21	0.7%	-2%	-3	-12	6	/	-0.2
COc1ccc(CC(CC(=O)O)C(=O)Nc2ccccc2)cc1 (configuration not stated)	1.9%	2%	3	2.4	3	0.2%	-0.9
CCCCc1nc(SCCOC)c2c(=O)n(C)c(=O)n(C)c2n1	0.5%	-8%	1	-4.2	23	/	3.9
CC(=O)c1cccc(NC(=O)c2cc3nc(-c4ccc(Br)cc4)cc(C(F)(F)F)n3n2)c1	2.1%	/	/	/	-1	?	0.6
C=CCSc1nc2ccsc2c(=O)n1-c1ccccc1	6.8%	14%	-19	4.3	21	/	4.4
O=S(=O)(c1ccc2oc3ccccc3c2c1)N1CCCC1	6.9%	8%	-9	-0.6	-8	-1.5%	-0.3
CCOC(=O)c1ccc(Nc2nc(=O)c3cccnc3s2)cc1	2.1%[38.3 µM]	17%	-13	2.9	6	-0.1%	-0.6
Cc1cc2oc3c(c(=O)c2cc1C)C1(C(=O)N(C)c2ccccc21)N(CCO)C3=O (configuration not stated)	1.0%	/	/	/	-2	-1.5%	-0.1
CC(=O)Nc1cc(C(=O)N2CCc3ccccc3C2)ccc1Sc1ccc(Cl)cc1	-1.0%	5%	6	5.0	-11	-4.1%	1.5
CCOC(=O)C1(C)CCN1C(=O)c1cc(OC)c(OC)c(OC)c1 (configuration not stated)	0.0%	/	/	/	/	-1.2%	-0.1
Cc1ccc(C)c(NC(=O)CCCN2C(=O)COc3ccc(C)cc32)c1	0.2%	/	/	/	?	0.9%	0.9
CC(Oc1ccc(-c2ccccc2)c(F)c1)c1ccn(S(=O)(=O)c2ccc(F)cc2)n1 (configuration not stated)	0.8%	17%	22	4.2	9	-1.3%	3.1
CC1CCCC(NC(=O)CCNC(=O)c2ccc([N+](=O)[O-])cc2)C1C (configuration not stated)	0.4%	17%	-9	/	13	-0.7%	0.6
CCC/C=C(\CCC)C(NC(=O)Cc1ccccc1)c1ccc(C(=O)OC)cc1 (configuration not stated)	2.0%	8%&34%	0	-1.2&0.6	8	-2.2%	1.3
FC(F)(F)c1cccc(NC(=S)N2CCCC2)c1	0.1%	18%	0	1.7	17	-0.6%	-0.9
O=C(Cc1cccs1)NCCSc1c(-c2ccc(Cl)cc2)[nH]c2ccccc12	?	5%	6	0.2	66	3.8%	0.0
COc1ccc(NC(=O)Nc2nnc(N(C)C3CCCCC3)s2)c(OC)c1	-0.3%	/	/	/	15	0.2%	-0.6
CCOc1ccc(NS(=O)(=O)c2ccc(C(=O)NCC(c3ccco3)N(C)C)cc2)cc1 (configuration not stated)	1.5%	/	-8	/	11	-4.8%	11
CC(NC(=O)c1csc2ccccc12)C1CCCO1 (configuration not stated)	-1.8%[38.3 µM]	12%	8	-3.1	15	-2.2%	0.2
Cc1c(N)cccc1-c1nc2ccccc2[nH]1	0.2%	2%	9	-1.7	14	?	-0.7

One compound at a time, as listed above. Screens in order: PINK1 expr mod | Sfp PPTase inh | TRPV1 potentiator | Menin MLL FP FL | TRPML1 inh | ClpP mod | TRPML1 ag
CCOc1ccc(NS(=O)(=O)c2ccc(C(=O)NCC(c3ccco3)N(C)C)cc2)cc1 (configuration not stated) is entered as 1.5% | / | -8 | / | 11 | -4.8% | 11
Cc1ccccc1NC(=S)N(Cc1cccnc1)Cc1ccco1 is entered as 1.7% | 11% | -6 | 4.4 | -7 | -0.7% | -0.5

(more compounds)
SMILES	PINK1 expr mod	Sfp PPTase inh	TRPV1 potentiator	Menin MLL FP FL	TRPML1 inh	ClpP mod	TRPML1 ag
CCN(C[C@H]1N[C@@](C)(C(=O)OC)[C@H]2C(=O)N(C)C(=O)[C@@H]12)C(=O)Nc1ccc(F)cc1	-1.2%	/	/	/	-1	0.7%	-0.7
Cc1ccc(S(=O)(=O)N2CCN(C(=O)CSc3nnc(-c4ccco4)o3)CC2)cc1	-4.1%	7%	27	-3.3	1	1.0%	-0.9
O=C(NCc1ccccn1)C1CCN(C2CCN(Cc3cccc(F)c3)CC2)CC1	-0.2%	/	/	/	-2	-1.9%	-0.3
Cc1ccc(SCCNC(=S)Nc2ccc(C)cc2C)cc1	0.8%	-12%	-16	8.7	6	-0.4%	0.9
O=C(CSc1ccccc1C(=O)O)NC1CCCCCC1	-1.0%	20%	-3	0.7	11	/	0.1
Cc1ccc(C)c(Cn2c(CN(C)Cc3ccccc3)nc3c2c(=O)n(C)c(=O)n3C)c1	1.6%	-27%	/	3.9	6	2.9%	0.9
CN(CC1CCCN(CCc2ccc(F)cc2)C1)C(=O)CCC(F)(F)F (configuration not stated)	0.0%	12%	0	2.7	22	/	0.1

Already shown: entries from further up.
SMILES	PINK1 expr mod	Sfp PPTase inh	TRPV1 potentiator	Menin MLL FP FL	TRPML1 inh	ClpP mod	TRPML1 ag
Cc1ccc(C)c(Cn2c(CN(C)Cc3ccccc3)nc3c2c(=O)n(C)c(=O)n3C)c1	1.6%	-27%	/	3.9	6	2.9%	0.9
CN(CC1CCCN(CCc2ccc(F)cc2)C1)C(=O)CCC(F)(F)F (configuration not stated)	0.0%	12%	0	2.7	22	/	0.1

Not a hit list. Share with any hit: about 4.4%.
